Source: PubChem BioAssay (ICCB-Longwood Screening Facility, Harvard Medical School)
HCMV UL50-53 inh: inhibitors of HCMV UL50-UL53 nuclear egress complex interaction | HTRF UL50-UL53 interaction, normalized percent inhibition | inhibition, % (test concentration not listed) | 190,000 tested, 0.15% active;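 active means both replicates at 50% or more, plus weaker picks with an unusually low signal ratio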;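 further: stock transfer was 100 nL into about 20 µL; 0% = negative control wells and 100% = wells with untagged competitor protein; inactives centre near -12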
Sa growth inh: inhibitors of Staphylococcus aureus growth at 42 °C; AID 720641; 170,000 tested, 0.53% active; relative growth, % (concentration not given with the values); S. aureus RN4220 growth, OD600, 20 h; hits give low values;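 active means growth at 42 °C up to 50% and 20 or more points under that at 30 °C, or under 10% at both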;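 further: 300 nL library stock went into each well; scaled to the means of positive and negative controls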
GIV Gai3 FP: blocks GIV peptide binding to rat Galpha-i3 | percent of control (FP), % (no concentration beside the values) | Galpha-i3/FITC-GIV peptide fluorescence polarization, 90 min; hits give low values; scaled: aluminum fluoride 0%, vehicle 100% | AID 1224905 | 210,000 tested, 0.42% active | P08753;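 active means replicate mean at 85% of control or lower, very high polarization wells dropped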;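 further: wells of about 15 µL received 100 nL stock; the first replicate is given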
Target sequence (P08753 whole entry, looked up): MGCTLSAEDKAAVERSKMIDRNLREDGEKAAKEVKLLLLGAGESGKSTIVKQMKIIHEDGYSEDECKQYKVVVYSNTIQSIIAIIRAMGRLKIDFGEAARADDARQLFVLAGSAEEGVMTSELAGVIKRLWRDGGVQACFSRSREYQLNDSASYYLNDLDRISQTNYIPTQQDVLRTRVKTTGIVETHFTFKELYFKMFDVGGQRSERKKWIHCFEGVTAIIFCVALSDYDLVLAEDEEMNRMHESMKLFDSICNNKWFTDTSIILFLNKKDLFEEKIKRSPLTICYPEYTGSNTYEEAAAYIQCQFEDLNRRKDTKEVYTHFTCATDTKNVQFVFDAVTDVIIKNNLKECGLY
Sa growth inh second temp: further read-out of Sa growth inh, marked with its call; relative growth, %; measured here: growth at 30 °C;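 optical density after 20 h as mean of two plates; 100% = untreated growth and lower means inhibition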
An asterisk follows results filed as active; nt = not tested or not shown; & = joins results of further samples. Compounds as they come; 0.8% or so of the library scored in one or more.

SMILES	HCMV UL50-53 inh	Sa growth inh	Sa growth inh second temp	GIV Gai3 FP
CCOC(=O)c1c(S(=O)(=O)N2CCCC(C(=O)Nc3cccc(C#N)c3)C2)c(C)n(C)c1C (stereo not drawn)	nt	90.5	92.6	101.6
COc1ccc(-c2noc(N(C)CC(=O)N3CCN(c4ccccc4OC)CC3)n2)cc1	nt	93.1	87.0	102.5
COc1ccc(-c2cc(C(=O)N3CCN(S(=O)(=O)c4ccc(OC)c(OC)c4)CC3)[nH]n2)cc1	2.6	nt	nt	117.5
COc1ccc(C(=O)Cc2ccccc2)cc1OC	40.9	105.0	88.9	95.2
Cc1cccc(C(=O)NCC(c2ccccc2)N(C)C)c1 (stereo not drawn)	-4.8	93.7	95.4	nt
Cc1oc2c(F)c(F)c(F)c(F)c2c1S(=O)(=O)Nc1cccc(C(F)(F)F)c1	0.7	8.5*	1.9*	110.6
Cc1cc(C)cc(NC(=O)[C@@H](NC(=O)c2ccco2)C(C)C)c1	7.0	101.8	92.0	nt
CSc1ccc(Cl)c(C(=O)OCC(=O)N2CCc3ccccc3C2)c1	1.2	88.5	95.1	nt
Cc1[nH]c2ccccc2c1C(=O)CN1c2ccccc2CC1C (stereo not drawn)	12.6	147.2	89.6	nt
Cn1cc(C(CC(=O)O)C(=O)O)c2ccccc21 (stereo not drawn)	-5.5	118.6	91.2	104.7
CC(C)Cn1cnc2nc(CSc3ccccc3NC(=O)Nc3ccc(F)cc3F)cc(=O)n21	-16.7	nt	nt	102.5
CCN(CC)CCCNC(=O)Cn1nc(N2CCN(c3ccccc3)CC2)ccc1=O	-28.6	nt	nt	103.9
CC(C)N(Cc1ccc(N(C)C)cc1)S(=O)(=O)c1ccc(F)cc1	nt	99.6	85.8	104.9
O=S(=O)(c1ccc(Cl)cc1)c1nnn2c1nc(NCc1ccccc1)c1sccc12	nt	93.2	78.1	108.1
Cc1ccc(NC(=O)c2cc3ccccn3n2)cc1	-31.7	nt	nt	103.6
O=C(CN(Cc1ccc2c(c1)OCO2)C(=O)CSc1nc2ccccc2o1)NC1CCCCC1	-0.9	117.3	109.7	105.3
COc1cccc(Cn2c(=O)cc(C)c3c(C)nn(C)c32)c1	nt	76.2	75.7	99.6
CCCc1cc(Nc2ccc(F)c(Cl)c2)n2nc(-c3ccco3)nc2n1	-12.5	nt	nt	103.5
O=C(Nc1cccc(N2CCn3c(nc4cc(Cl)ccc43)C2)c1)C1CCCCC1	-8.2	nt	nt	108.1
CC1(C)CC2CC(C)(CN2S(=O)(=O)c2ccc(C(=O)Nc3cccc(-c4nc5ccccc5[nH]4)c3)cc2)C1 (stereo not drawn)	-5.0	nt	nt	99.2
COc1cc(/C=C2/SC(=Nc3ccccc3)NC2=O)ccc1OCC#N	-50.1	nt	nt	106.4
CC1CN(S(=O)(=O)c2ccccc2)C(C)N1C(=O)N1CCOCC1 (stereo not drawn)	10.8	77.8	90.8	101.9
Cc1ccc(S(=O)(=O)/N=C(\c2ccccc2)N2CCCC2)cc1	-6.2	104.0	98.7	108.4
CC1CC(C)CN(S(=O)(=O)c2ccc(C(=O)NCc3ccco3)cc2)C1 (stereo not drawn)	20.7	87.3	101.7	nt
N#Cc1sc2nc3ccccc3n2c1N	-24.9	93.0	88.3	108.6
CCc1ccccc1NC(=O)c1cc2cc3ccc(OC)cc3nc2o1	-5.1	nt	nt	99.8
COc1ccc(F)cc1S(=O)(=O)NCC(c1ccco1)S(=O)(=O)c1cccs1 (stereo not drawn)	nt	127.1	86.4	95.8
O=C(OCc1nnc(-c2ccccc2Br)o1)c1ccc2[nH]c3c(c2c1)CCCC3	-4.5	103.2	96.1	nt
Cc1ccc2[nH]c3c(=O)n(CC(=O)Nc4cccnc4)ncc3c2c1	-28.7	104.2	87.8	107.0
O=C(C1CC1)N1CCC(n2nc(-c3ccccc3)oc2=O)CC1	-15.1	nt	nt	106.9
COc1nc(C)c(/C=C/C(=O)N(C(=O)NC2CCCCC2)C2CCCCC2)c(OC)n1	-7.0	110.7	80.0	104.2
Cc1cc([N+](=O)[O-])ccc1NC(=O)CSc1nccn1C	-24.9	97.7	100.1	105.7
COc1ccc(C(CNC(=O)c2ccc(F)cc2)N2CCCCC2)cc1 (stereo not drawn)	-24.5	nt	nt	100.9
CCn1nnc(NCc2ccc(-c3cc(Cl)ccc3Cl)o2)n1	0.6	nt	nt	96.1
COCCCNC(=O)N1[C@H](c2cccs2)[C@@H](C)C(=O)[C@@H](C)[C@@H]1c1cccs1	-15.6	94.7	81.0	94.4
CCOc1cc2[nH]c(=O)n(CCC(=O)N3CCN(c4ccccc4)CC3)c(=O)c2cc1OCC	nt	93.4	82.9	110.6
Cc1cccc(OCc2nnc(SC(C)C(=O)O)n2Cc2ccccc2)c1 (stereo not drawn)	13.0	101.0	106.5	91.8
CCCCOc1ccc(C(=O)Nc2ccc3c(c2)NC(=O)CO3)cc1	-27.2	nt	nt	108.4
COc1ccc(-c2noc(-c3ccc(NCc4ccco4)c([N+](=O)[O-])c3)n2)cc1	-16.6	95.7	86.2	95.4
Fc1cccc(CSc2nccn3nc(-c4ccc(Br)cc4)cc23)c1	-16.3	nt	nt	106.2
N#CC1=C2C=CC=CN2/C(=C\c2cn(-c3ccccc3)nc2-c2cccs2)C1=O	-24.8	82.3	81.5	nt
O=C(CCN1CCN(c2ccccc2)CC1)Nc1nccs1	-4.2	71.9	76.0	nt
CCc1ccccc1Nc1nc(-c2c(C)nc3sccn23)cs1	16.5	131.6	100.6	119.4
CCOC(=O)c1c(C)nc2sccn12	-2.0	84.0	90.2	96.9
Cc1cc(NC(=O)c2ccc(Cl)cc2)no1	6.8	121.5	72.4	105.5
CCCCC[C@H](O)/C=C/[C@@H]1[C@@H](C/C=C\CCCC(=O)O)[C@@H](O)C[C@H]1O	-33.0&12.8&12.8&-8.2&-8.2&-9.4	85.2	82.3	99.9
COc1ccc(-c2nc(SCC(=O)Nc3c(C)cc(C)cc3C)n[nH]2)cc1	nt	89.0	95.0	103.8
Cc1cc(C)n2nc(C(=O)N(C)CC(=O)Nc3ccc(Cl)c(C(F)(F)F)c3)nc2n1	-8.7	109.3	85.9	nt
COc1cc2nc(C)[nH]c2cc1OC	-12.2	98.1	112.7	99.8
CC1CCc2c(sc(Nc3nc4ccc(F)cc4s3)c2C(N)=O)C1 (stereo not drawn)	3.8	nt	nt	149.1
COc1ccc(S(=O)(=O)N2CCN(c3nc4ccccc4n4cccc34)CC2)cc1OC	-32.3	nt	nt	98.5
CCC(CC)C(=O)NCc1ccccc1	-6.5	105.2	98.2	103.2
Cc1ccc(S(=O)(=O)CCc2nc3ccccc3n2CCC#N)cc1	11.5	78.8	67.6	105.5
CC(=O)Nc1nc2n(n1)C(c1ccc(F)cc1)C=C(c1ccc(Cl)cc1)N2 (stereo not drawn)	0.8	107.4	70.3	100.7
CCOC(=O)c1ccsc1NC(=O)CSc1ccccc1	-23.8	84.5	80.4	101.5
O=C(Sc1cccc2cccnc12)c1ccccc1Cl	-54.8	14.8	19.4	nt
O=C(NCCc1ccccn1)C1CC(=O)N(Cc2ccccc2Cl)C1 (stereo not drawn)	-23.3	74.8	96.2	nt
Cc1ccc(-c2c3c(=O)n(C)c(=O)n(C)c3c3cnc4ccccc4n23)cc1	-23.8	94.3	101.1	108.3
O=C(C1CCCCC1)N(Cc1cccnc1)c1nc2c(F)cc(F)cc2s1	nt	109.1	63.6	105.3
COc1ccc(Cn2ccc3nc(C)c(C(=O)NC4CCCC4)cc3c2=O)cc1	-34.1	nt	nt	97.9

Part of the list above with just GIV Gai3 FP and HCMV UL50-53 inh:
Structure	GIV Gai3 FP	HCMV UL50-53 inh
CC(=O)Nc1nc2n(n1)C(c1ccc(F)cc1)C=C(c1ccc(Cl)cc1)N2 (stereo not drawn)	100.7	0.8
CCOC(=O)c1ccsc1NC(=O)CSc1ccccc1	101.5	-23.8
O=C(Sc1cccc2cccnc12)c1ccccc1Cl	nt	-54.8
O=C(NCCc1ccccn1)C1CC(=O)N(Cc2ccccc2Cl)C1 (stereo not drawn)	nt	-23.3

(next part)
SMILES	HCMV UL50-53 inh	Sa growth inh	Sa growth inh second temp	GIV Gai3 FP
COC(=O)C1C2C=CC3(CN(CC(C)C)C(=O)C13)O2 (stereo not drawn)	-8.2	90.8	82.9	98.7
CC(Sc1ncc(C(F)(F)F)cc1Cl)c1ccn[nH]1 (stereo not drawn)	-18.9	nt	nt	104.2
Nc1cnn(-c2ccccc2)c(=O)c1N	nt	81.4	91.1	98.8
N#CCCSc1nccn1Cc1ccccc1	7.7	118.9	94.4	100.8
O=C1CCC(=O)N1CNc1cc(C(F)(F)F)cc(C(F)(F)F)c1	-16.9	82.5	88.8	99.2
COc1ccccc1C1C=C(c2cccnc2)Nc2nc3ccccc3n21 (stereo not drawn)	-51.6	91.8	46.3	69.4*
CC(C)C(C(=O)NCc1ccccc1)N1Cc2ccccc2C1=O (stereo not drawn)	-12.4	100.2	92.2	108.9
Cc1ccc(NC2=NC(C)(C)N=C(N)N2)cc1	nt	82.8	85.1	107.2
CCS(=O)(=O)N1CCC2(CC1)OC(=O)C(C)=C2C(=O)NCc1ccc(OC)c(OC)c1	nt	86.1	86.0	96.7
CCN(CCS(=O)(=O)c1ccc(Cl)cc1)Cc1nc2ccccc2c(=O)[nH]1	-5.6	81.7	90.8	nt
Clc1cc2c(c3ncccc13)OCN(CC1CCCO1)C2 (stereo not drawn)	-67.8	1.0*	0.1*	nt
Cc1cnc(N)c(C)n1	-27.1	91.0	89.3	104.3
CC(C)n1cnc2nc(CSc3ccccc3NC(=O)COc3ccccc3Cl)cc(=O)n21	-35.1	nt	nt	100.2
Cn1c(C(=O)NC2CC2)cc2c(=O)n(C)c3ccccc3c21	nt	105.1	92.4	99.7
CCOC(=O)c1[nH]c(C)c(CCC(=O)Nc2cccc(SC)c2)c1C	nt	99.7	94.6	101.0
O=C(CSCc1ccc(F)cc1)N1CCc2c([nH]c3ccccc23)C1c1ccc(F)cc1 (stereo not drawn)	nt	82.2	88.5	104.1
Cc1c(C#N)c2nc3ccccc3n2c(=O)/c1=C\Nn1cnnc1	nt	89.5	79.3	118.2
COCCn1c(C)cc(C(=O)COC(=O)c2ccccc2Br)c1C	-7.5	103.2	96.5	nt
Cc1ccc2ccc3cc(C(=O)N4CCc5ccccc54)nc3c2[nH]1	-6.0	nt	nt	107.4
Cc1nnc(SCc2ccc(Cl)cc2Cl)o1	-4.3	105.8	85.2	97.3

GIV Gai3 FP: what is marked active above.
SMILES	Sa growth inh	Sa growth inh second temp	GIV Gai3 FP
COc1ccccc1C1C=C(c2cccnc2)Nc2nc3ccccc3n21 (stereo not drawn)	91.8	46.3	69.4*

The results go on.
SMILES	HCMV UL50-53 inh	Sa growth inh	Sa growth inh second temp	GIV Gai3 FP
O=C(Cc1cccs1)N1CCN(c2ccccn2)CC1	-1.9	108.4	98.2	112.9
CCOC(=O)c1c(NC(=O)C(C)Sc2nc3c(cnn3-c3ccc(F)cc3)c(=O)[nH]2)sc2c1CCC2 (stereo not drawn)	0.8	99.8	85.8	99.2
c1ccc(-c2nonc2NCNc2nonc2-c2ccccc2)cc1	-2.9	102.0	80.9	102.1
O=C(O)C/C(=C/c1ccc(-c2cccs2)s1)C(=O)O	-36.9	114.5	95.2	101.8
CC1=C(C(=O)Nc2ccccc2)C(c2ccco2)C(C#N)=C(SCC(=O)Nc2ccccc2)N1 (stereo not drawn)	-11.5	94.1	61.3	97.0
CCC(C)(C)NC(=O)Cn1c(=O)ccc2cc(S(=O)(=O)N3CCC(C)CC3)ccc21	nt	74.6	97.2	99.5
COc1ccc(-c2c3c(=O)n(C)c(=O)n(C)c3c3c(-c4ccccc4)nc4ccccc4n23)cc1	-23.5	94.3	91.8	102.2
Cc1ccc(N2CCN(S(=O)(=O)c3ccc4[nH]c5c(c4c3)CCCCC5)CC2)c(C)c1	nt	104.4	105.8	107.0
N#Cc1c(N)ncc2c1CCCC2	-17.0	98.7	80.7	98.8
COc1ccc2nc(NC(=O)NCc3noc4ccccc34)sc2c1	1.7	nt	nt	109.3
COc1ccc(CCNCc2ccc3c(c2)n(C)c(=O)n3C)cc1OC	2.3	96.2	102.5	107.1
CCOc1ccc(NC(=O)CSc2ncc3c(n2)-c2ccc(Cl)cc2N(Cc2ccccc2)S3(=O)=O)cc1	nt	94.9	90.5	99.2
CCNC(=O)c1ccc2nc(Cc3ccccc3)oc2c1	nt	95.8	90.6	101.8
Cc1ccc(NC(=O)N2CCN(Cc3nc4cccnc4n3-c3ccccc3)CC2)c(C)c1	-16.1	nt	nt	100.9
O=C(c1ccc(S(=O)(=O)c2ccc(Br)cc2)nc1)N1CCN(c2ncccn2)CC1	-12.8	nt	nt	99.4
Cn1nc(C(C)(C)C)c(NC(=O)c2cccs2)c1C(C)(C)C	-19.1	113.9	90.0	96.7
CCCC(=O)Nc1cc(C(=O)NCc2ccccc2)ccc1S(=O)(=O)c1ccc(Cl)cc1	nt	109.5	89.0	102.5
Cc1c(Cl)cccc1NC(=S)N(Cc1ccco1)C(C)c1ccccn1 (stereo not drawn)	-28.9	99.9	42.7	104.0
COC(=O)c1sc(NC(=O)CSc2ncnc3sc4c(c23)CCCC4)c(C(=O)OC)c1C	-9.6	nt	nt	106.6
Cc1ccc(S(=O)(=O)NCCC(=O)N2CCOCCOCCOCC2)cc1	nt	108.5	82.1	101.1
